# Screening results as filed in PubChem BioAssay.
# NPYLR7 agonist – mosquito NPYLR7 agonism; HEK293T NPYLR7/Galpha15, GCaMP6s calcium fluorescence; activation, % at 10 µM; hit rate 0.15% among 270,000; in the data active means activation above about 40%;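 further: 0% = vehicle and 100% = reference agonist at the receptor; some compounds past the cut are filed as inactive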
# NPYLR7 agonist max-min – also measured in NPYLR7 agonist; calls as there; activation, %; measured here: Max-Min RFU normalised activation; some inactives read as strong as hits;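 span of the calcium signal over five minutes; 0% = vehicle and 100% = native peptide agonist; compound fluorescence can raise it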
# Numbers without * were called inactive; & = joins results of further samples. The list is partial (hit frequency here may not be typical).
# The opening seven compounds as a preview:
item	SMILES	NPYLR7 agonist	NPYLR7 agonist max-min
1	CC1(C)Oc2ccc3ccc(=O)oc3c2CC1O (stereo unspecified)	-5&-3	-6&-5
2	COc1ccc(NC(=O)N(CCC(C)C)Cc2ccc(OS(C)(=O)=O)cc2)cc1	8	18
3	CCn1c(SCC(=O)Nc2ccccc2C)nc2c(-c3ccccc3)c[nH]c2c1=O	1	-4
4	O=C(NCCCc1ccccc1)c1ccc(-c2cc(-c3ccc(Cl)cc3)[nH]n2)cc1	16	15
5	CC(C)(C)c1nc(=O)c2cc(Cl)ccc2o1	-4	-6
6	Cc1ccc(N2C(=O)CC(n3ccnc3)C2=O)cc1 (stereo unspecified)	14	6
7	Cc1cc2n(CCC#N)c(C)cc(=O)n2n1	4	-2

# All compounds of this part, from the start:
item	SMILES	NPYLR7 agonist	NPYLR7 agonist max-min
1	CC1(C)Oc2ccc3ccc(=O)oc3c2CC1O (stereo unspecified)	-5&-3	-6&-5
2	COc1ccc(NC(=O)N(CCC(C)C)Cc2ccc(OS(C)(=O)=O)cc2)cc1	8	18
3	CCn1c(SCC(=O)Nc2ccccc2C)nc2c(-c3ccccc3)c[nH]c2c1=O	1	-4
4	O=C(NCCCc1ccccc1)c1ccc(-c2cc(-c3ccc(Cl)cc3)[nH]n2)cc1	16	15
5	CC(C)(C)c1nc(=O)c2cc(Cl)ccc2o1	-4	-6
6	Cc1ccc(N2C(=O)CC(n3ccnc3)C2=O)cc1 (stereo unspecified)	14	6
7	Cc1cc2n(CCC#N)c(C)cc(=O)n2n1	4	-2
8	CCCN(Cc1cccc(Cl)c1)C(=O)C(CC)OC (stereo unspecified)	0	-3
9	Cc1cc(C)n(-c2ccccc2C(=O)N2CCC(Oc3ccccn3)CC2)n1	-6	3
10	CCOCCCN(CC(=O)N(Cc1cccn1Cc1ccccc1Cl)CC(C)C)S(=O)(=O)c1ccc(F)cc1	1	10
11	Cn1c(C(=O)OCC(=O)NC2CCCCNC2=O)c(Cl)c2ccccc21 (stereo unspecified)	8	4
12	COc1ccc2cc(C(=O)Nc3ccccc3C)c(=N)oc2c1	-5	-9
13	COc1ccc(C(N)=O)cc1-c1ccc(S(C)(=O)=O)cc1	12	9
14	Cc1ccccc1C1SCC(=O)N1CCN(C)C(=O)c1cccs1 (stereo unspecified)	-2	6
15	COCCNc1oc2c(c1-c1ccc(F)cc1)c(=O)oc1ccc(C)cc12	-6	-8
16	O=C(Nc1ccc(NC(=O)c2sc3ncccc3c2-n2cccc2)cc1)c1ccco1	-3	-5
17	O=C1N(Cc2cccc(Cl)c2)C[C@@H]2C[C@@H](c3cccn3-c3nccs3)N3CCC[C@@]123	6	8
18	CC(=O)Nc1ccc(C(C#N)c2ccccc2)c(Cl)c1 (stereo unspecified)	-25	-27
19	O=C(Nc1cccc(C2SCC(=O)N2c2ccc(F)cc2F)c1)c1cccs1 (stereo unspecified)	-2	2
20	CCOC(=O)c1nn(-c2ccc(Cl)cc2Cl)c(N)c1C#N	6	5
21	O=S(=O)(N1CCCCC1)N1CCCc2cc(F)c(F)cc21	1	2
22	COC(=O)/C=C/c1sccc1NC(C)=O	0	-3
23	Cc1ccoc1C(=O)O	1	4
24	C=CCN(Cc1ccc(F)cc1)C(=O)c1ccc(CN2CCCC2)o1	3	4
25	CCOCCCN(CC(=O)N(Cc1ccccc1)Cc1cccn1Cc1ccc(F)cc1)C(=O)COc1ccccc1	-8	0
26	Cc1ccc(-c2ccsc2C(=O)Nc2c[nH]c(=O)cc2C)cc1	11	8
27	CC(=O)Nc1nc2ccc(N3C(=O)c4ccccc4C3=O)cc2s1	3	3
28	CC(C)(C)CCCNCCCNC(=O)/C=N/O	4	2
29	C#CCN(CC=C)C(=O)C1(Oc2ccc(C)cc2)CCNCC1	-5	-7
30	Cc1ccc(NC(=O)C2CC2)cc1NCC(=O)N1CCOC(C)C1 (stereo unspecified)	1	9
31	CCC(C)NC(=O)CSc1ncnc2c1cnn2-c1ccccc1 (stereo unspecified)	11	4
32	COC(=O)C(Cn1ccnc1)C(O)(c1nccn1C)C(F)(F)F (stereo unspecified)	10	8
33	Cc1ccccc1Oc1cc(C(F)(F)F)nc(SCc2ccc(F)c(F)c2)n1	1	2
34	CC(=O)c1ccc(NC2=NS(=O)(=O)c3cc([N+](=O)[O-])ccc32)cc1	2	1
35	CC(C)c1nnc(S(=O)C(C)C(=O)NC(C)c2ccc(Cl)cc2)n1C (stereo unspecified)	11	8
36	Cc1ncc(CO)c2cc(C(=O)Nc3cccc4ccccc34)c(=Nc3cccc4ccccc34)oc12	-9	-16
37	Cc1cccc(C)c1OCC(O)CN1C(=O)N(C)C2(CCCCC2)C1=O (stereo unspecified)	-2	-10
38	COc1cc2c(c(OC)c1)C(c1c(C)nn(C(C)(C)C)c1C)CC(=O)N2 (stereo unspecified)	0&0	-2&1
39	O=C(N1CCC(Cc2ccc(-c3ccccc3)cc2)CC1)C(F)(F)C(F)F	3	8
40	CCc1cc(C(=O)NN2C(=O)NC3(CCCCC3)C2=O)sc1C	7	7
41	CCOC(=O)c1cnc(-c2ccccc2)nc1NCCC#N	-7	-11
42	CC(C)Oc1cccc(Nc2cc3c(cn2)cc(-c2cnn(C)c2)n3C)c1	-15	-15
43	CCNC(=O)N(Cc1cc(Cl)ccc1OS(=O)(=O)CC)C(C)C	-6	5
44	CC(O)c1ccc(-c2cccc(-n3cccn3)c2)cc1 (stereo unspecified)	4	2
45	CCN(CC)S(=O)(=O)c1ccc(C(=O)N2CCCn3nccc32)cc1	5	3
46	Oc1ccc(CN2CCCC3(CCNCC3)CC2)cc1Cl	3	2
47	O=S(=O)(Nc1cccc(Cl)c1)c1cnc[nH]1	-2	0
48	O=C(OCc1cc(-c2ccccc2F)on1)c1cc2ccccc2o1	-1	-2
49	CCCC12CN3CC(C)(CN(C1)C3C(O)C(O)C(O)CO)C2=O (stereo unspecified)	9	6
50	O=C(NCc1ccco1)c1coc(CN(Cc2ccccc2)Cc2cccc(Oc3ccccc3)c2)n1	23	37
51	O=C(c1cccc(Cn2c(=O)ccc3ccccc32)c1)N1CCCCC1	-4	-3
52	Cc1ccc(-n2nnc3c(N4CCNCC4)ncnc32)cc1	1	-2
53	Oc1ccccc1OCCOCCOc1ccccc1O	-3	-5
54	CCCc1nnc2c(C(=O)N[C@H]3CCCC[C@H]3C(=O)OCC)cccn12	10	11
55	O=C(CN1CCN(C(=O)NCc2cccnc2)CC1)Nc1ccc(Cl)c(C(F)(F)F)c1	5	6
56	CCOC(=O)N1CCN(C(c2ccccc2)C2Sc3nc(C)nn3C2=O)CC1 (stereo unspecified)	-3	-4
57	O=C1c2ccccc2S(=O)(=O)N1c1ccccc1F	6&1	3&0
58	CC(C)(C)CC(C)(C)Nc1c(-c2ccc(OC(=O)C3CCCCC3)cc2)nc2ccccn12	-9	-1
59	CC(C)(O)CSCCNC(=O)N1CCc2c(F)ccc(F)c2C1	-4	-4
60	COc1ccc(-c2csc3nc(CN(CC(O)Cc4ccccc4)C(C)C)[nH]c(=O)c23)cc1OC (stereo unspecified)	0	11

# Next part
item	SMILES	NPYLR7 agonist	NPYLR7 agonist max-min
61	COC(=O)C(=C/C=C/N1CCOCC1)C(=O)OC	-9	-17
62	COc1ccc(NC(=O)Nc2cccc(-c3csc4nc(C)cc(=O)n34)c2)cc1	21	20
63	CCOc1ccc(N=CC(C#N)c2nc3ccccc3s2)cc1 (stereo unspecified)	4	1
64	COc1cc(C=NN2CCN(C)CC2)cc(OC)c1O	8	7
65	O=C(c1cccnc1)N1CCC(n2cnc3ccc(F)cc32)CC1	6	14
66	COc1ccc(S(=O)(=O)Oc2cccc(CN(Cc3ccc(F)cc3)C(=O)c3ccco3)c2)cc1	-9	-6
67	CCOC(=O)CN(C)C(=O)c1cc(OC)ccc1OC1CCN(C(C)=O)CC1	4	-1
68	COC(=O)Cc1nc(NC(=O)c2ccccc2OC)n[nH]1	4	1
69	Cc1cc(NC(=O)C2(C)CCN2C(=O)CCc2ccc(Cl)cc2Cl)no1 (stereo unspecified)	3	1
70	CCOC(=O)C(=O)N1CCN(CC(OCc2cccc(C)c2)c2ccc(Cl)cc2)CC1 (stereo unspecified)	6	1
71	CCN1C(=O)NC(c2ccccc2C(F)(F)F)C2=C1CN(C(CC(C)C)C(=O)NCc1ccncc1)C2=O (stereo unspecified)	-2	-1
72	CCCNC(=O)N(CC(=O)N1CCc2sccc2C1COc1ccccc1F)CC1CCCO1 (stereo unspecified)	-8	-8
73	Cc1cc(C(=O)NCC2CCN(Cc3cc(C(C)C)no3)C2)n[nH]1 (stereo unspecified)	-3	6
74	CC(=O)c1cccc(CN2CCC(CO)(CCCc3ccccc3)CC2)c1	12	15
75	COc1c(F)cccc1C(=O)N(C)Cc1ccc(C)o1	-5	-6
76	CCOc1ccccc1C(=O)Nc1ccc(N2CCN(C(=O)c3ccoc3)CC2)nc1	20	22
77	CCOC(=O)c1cc(-c2ccc(N3CCN(C(=O)Cc4cccs4)CC3)cc2)n(-c2ccc(F)cc2)n1	15	13
78	O=C(Nc1nnc(C23CC4CC(CC(C4)C2)C3)s1)c1ccc(S(=O)(=O)N2CCOCC2)cc1	-5	-10
79	CCCN(C)c1cc(-c2ccccc2)nc(SCc2ccc(C(=O)NCc3ccccn3)cc2)n1	-4	-7
80	O=c1cc(-c2ccc3c(c2)OCCO3)oc2cc(Cl)ccc12	-1	-9
81	COc1ccc(S(=O)(=O)N(Cc2nccn2Cc2ccccc2Cl)CC2CC2)cc1	6	12
82	CCCc1cc(C(=O)N2CCCC(Cc3ccccc3C)(C(=O)OCC)C2)no1 (stereo unspecified)	15&4	-2&10
83	Cc1ccn2c(NC3CCCCC3)c(-c3ccc(OC(=O)c4ccc(F)cc4)cc3)nc2c1	-13	2
84	C=CCn1c(SCc2cccc(C(=O)OC)c2)nnc1-c1ccc(OC)cc1	24	29
85	Cc1nc(CNC(=O)CC2(Cc3ccccc3)C(=O)N(C)c3ccccc32)no1 (stereo unspecified)	10	7
86	Cc1nc2sccn2c(=O)c1NC(=O)Nc1ccc(Cl)c(Cl)c1	-2	-2
87	Cn1c(-c2sc(=S)n(-c3ccccc3)c2N)nc2ccccc21	0	-7
88	COc1ccccc1C1CCCN1S(=O)(=O)NCc1ccccc1 (stereo unspecified)	10	8
89	COCCn1cc(NC(=O)c2ccccc2Oc2ccccc2)cn1	-2	-4
90	COc1ccc(-c2noc(Cn3ccn4nc(-c5cccs5)cc4c3=O)n2)cc1	-4	-10
91	COc1ccc2nc(C)cc(OCC(=O)NC3CCCC3)c2c1	3	0
92	Cc1cc(C(=O)N2CCN3C(=O)CNC(=O)C3C2)sc1-c1ccccc1 (stereo unspecified)	1	0
93	c1ccc2sc(C34CC5CC(CC(C5)C3)C4)nc2c1	4	5
94	O=C(COC(=O)c1ccccc1)Nc1ccccc1Br	-2	-3

# Entries of single compounds, looked up by structure:
# COc1ccc2nc(C)cc(OCC(=O)NC3CCCC3)c2c1 is listed as NPYLR7 agonist: 3; NPYLR7 agonist max-min: 0
# Cc1cc(C(=O)N2CCN3C(=O)CNC(=O)C3C2)sc1-c1ccccc1 (stereo unspecified) is listed as NPYLR7 agonist: 1; NPYLR7 agonist max-min: 0
